Six1-Eya2 inh: inhibitors of human Six1/Eya2 interaction; Q15475+O00167; AlphaScreen GST-Six1/His-Eya2 binding, biochemical; active compounds read low; control for the full effect not named in the record; activity change, % (test concentration not listed); 0.56% of 360,000 active; AID 651725; in the data active = activity change below about -65%; inconclusive = about -30% to -65%; inactive = above about -30%; note: % is set by controls: 0 for no effect and ±100 for the full control effect
Target sequence (O00167 whole entry, looked up): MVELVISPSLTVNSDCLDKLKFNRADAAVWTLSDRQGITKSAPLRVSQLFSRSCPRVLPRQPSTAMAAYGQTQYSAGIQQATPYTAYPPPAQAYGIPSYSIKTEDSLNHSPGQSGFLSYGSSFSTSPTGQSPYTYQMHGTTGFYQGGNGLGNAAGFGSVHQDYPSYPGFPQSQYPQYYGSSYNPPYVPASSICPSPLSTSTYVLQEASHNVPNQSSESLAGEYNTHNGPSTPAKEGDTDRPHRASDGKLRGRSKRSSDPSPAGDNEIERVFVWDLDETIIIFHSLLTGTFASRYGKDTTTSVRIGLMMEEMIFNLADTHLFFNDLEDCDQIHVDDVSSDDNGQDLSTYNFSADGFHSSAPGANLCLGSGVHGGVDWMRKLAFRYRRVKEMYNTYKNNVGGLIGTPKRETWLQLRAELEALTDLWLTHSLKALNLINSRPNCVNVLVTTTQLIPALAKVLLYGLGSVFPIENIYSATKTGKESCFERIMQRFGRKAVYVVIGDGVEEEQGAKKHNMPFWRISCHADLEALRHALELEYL
Target sequence (Q15475 whole entry, looked up): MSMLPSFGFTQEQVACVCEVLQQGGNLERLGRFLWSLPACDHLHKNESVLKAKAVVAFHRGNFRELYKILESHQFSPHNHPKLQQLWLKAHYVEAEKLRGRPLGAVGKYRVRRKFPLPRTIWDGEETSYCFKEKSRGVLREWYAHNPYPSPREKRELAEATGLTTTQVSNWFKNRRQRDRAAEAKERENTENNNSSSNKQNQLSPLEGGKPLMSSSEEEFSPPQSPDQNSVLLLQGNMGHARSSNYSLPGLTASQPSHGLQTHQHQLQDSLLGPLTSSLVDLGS
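Six1/Eya2 binding was read as AlphaScreen signal after compounds were pinned into GST-Six1 plus His-tagged Eya2 (5X stock 250/500 nM) in pH 8.0 Tris/NaCl/TCEP buffer, beads added, then incubated 1 h, 37 C, dark.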
D2 ag: human D2 receptor agonism in beta-arrestin assay. AID 624465. DiscoveRx PathHunter D2 beta-arrestin, luminescence, 90 min; 100% = 57 uM dopamine signal. 0.084% of 360,000 active. activation, % (concentration not given with the values); in the data active = activation above about 40%; inconclusive = about 15% to 40%; inactive = below about 15%; note: compound concentration not given in the record; the text of the record calls up to 30% inactive
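DiscoveRx PathHunter D2 beta-arrestin cells (2,100/well) attached overnight, then compound-stimulated 90 min at 37 C in HBSS/10 mM HEPES/0.1% Tween-20 buffer; beta-galactosidase complementation read by luminescence after 1 h at ambient temperature. Dopamine 57 uM final (EC100) as control.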
PINK1 expr mod: modulators of PINK1 expression; PINK1 immunofluorescence, high-content cytometry, 24 h; Potency, µM (titrated, usually from 76.6 µM), for inactives: at the highest dose activation (PINK1 increase), hits mostly activators; 0.2% of 410,000 active; AID 624263; active = well fitted activation curve with a large enough effect; inconclusive = small, poorly fitted or top-dose-only effect; inactive = flat fitted curve, though single readings scatter; cell line not stated here;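 note: potency is the fitted concentration of half-maximal effect; % of control where 0% means no effect; nearly all actives have a fitted effect of over 65% in size; a mitochondrial uncoupler was the plate control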
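PINK1 protein level read as immunofluorescence by microplate cytometer in a fixed, stained stable cell line after 24 h exposure to five compound concentrations, with CCCP as control.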
TRPML1 blocker: human mucolipin-1 channel inhibition; Q9GZU1; TRPML1-inducible cells, Ca2+ dye fluorescence, FDSS; active compounds read low; inhibition of EC80 agonist-evoked calcium signal; activity change, negative = inhibition, % (concentration not given with the values); 0.02% of 390,000 active; in the data active means activity change below about -50%; inconclusive means about -30% to -50%; inactive means above about -30%;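 note: stimulus is agonist 54-4 at its EC80 concentration; % is set by controls: 0 for no effect and ±100 for the full control effect; the text of the record puts the active cut at -80%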
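Calcium fluorescence in TRPML1-DL cells induced overnight with Tet: a 110 s read after compound pin addition, then a 110 s antagonist read after challenge with 54-4 at 4 uM final (EC80).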
TRPML1 ag: human mucolipin-1 channel agonism. 0.12% of 410,000 active. Q9GZU1. TRPML1-expressing cells, Ca2+ dye fluorescence, FDSS; host cell line not named in the record; reference of the full effect not given here. activation, % (test concentration not listed); in the data active = activation above about 50%; inconclusive = about 30% to 50%; inactive = below about 30%; note: 0% is about no effect; the text of the record puts the active cut at 80%
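Tet-induced TRPML1-DL cells, 1,500 per well, cultured overnight, were loaded with a no-wash Ca2+ dye for 45–90 min. Calcium fluorescence was recorded on the FDSS for 110 s after compound addition, before the EC80 agonist (4 uM 54-4) was added.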
CtBP-E1A blk: inhibitors of CtBP/E1A interaction; 0.49% of 340,000 active; activity change, % (test concentration not listed); AlphaScreen GST-E1A/His-CtBP binding, 1536-well; active compounds read low; control for the full effect not named in the record; AID 651724; in the data active means activity change below about -65%; inconclusive means about -30% to -65%; inactive means above about -30%; note: % is set by controls: 0 for no effect and ±100 for the full control effect
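Protein mix (5X: 125 nM each GST-E1A, His-CtBP) was incubated with pinned compound 2 h at 37 deg C in dark, in 50 mM Tris pH 8.0 buffer with 300 mM NaCl. Glutathione donor and nickel acceptor beads followed; AlphaScreen signal read after 1 h.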
The depositor's hits bear a star; ? = inconclusive; / = not tested or not shown; & = joins results of further samples; [ ] = another dose, or the depositor's remark.

The line under a structure holds: Six1-Eya2 inh	D2 ag	PINK1 expr mod	TRPML1 blocker	TRPML1 ag	CtBP-E1A blk
- Cc1onc(C(=O)NN)c1-c1csc(COc2ccc(Cl)cc2)n1
  -11	12	4.2%	20	-0.2	1
- Cn1cnc2c(NCc3ccco3)ncnc21
  5	-6.2	0.1%&0.0%	/	-0.3	-5
- Cc1ccc(OCc2cc(C(=O)NCCc3cccnc3)no2)cc1C
  0	6.8	0.9%	23	1.0	0
- CCCC(=O)N=c1sc2c(OC)ccc(OC)c2n1C
  0	-2.6	7.2%	-10	1.5	5
- CCNC(=S)NNC(=O)c1c(Cl)c(C)nn1C
  0	-4.9	-1.2%	7	-0.4	3
- COc1cc(/C=C/c2nc3ccccc3c(=O)[nH]2)ccc1O
  -9	8.4	11%	-3	-0.7	-7
- Cn1c2c(c(=O)n(C)c1=O)CN(CCc1ccccc1)CN2
  3	0.5	-0.4%	-10	-0.2	8
- CN1CCc2c(sc(NC(=O)C3CCCN3S(=O)(=O)c3ccc(Cl)s3)c2C(N)=O)C1 (stereo unspecified)
  -1	-1.3	-0.9%	-8	-0.5	-5
- COc1ccc(NC(=O)Cn2c(CCC(=O)O)ccc2-c2ccccc2)cc1
  -8	-1.8	2.9%	26	0.1	7
- CC(=O)c1ccc(OCC(=O)OCC(=O)NCc2ccco2)cc1
  4	-4.0	1.1%	-2	-0.3	10
- COc1cc(OC)cc(C(=O)NC(=S)N2CCCCC2c2cccnc2)c1 (stereo unspecified)
  5	-1.8	1.1%	/	/	3
- COc1cc(/C=C/C(=O)N2CCC=CC2=O)cc(OC)c1OC
  -7	-6.7	-0.9%	27	-0.6	-2
- CC(C)Oc1ccc(C(=O)Nc2ccc(N(C)C)cc2)cc1
  -20	-1.4	?	1	0.3	-12
- COc1cccc(OC)c1C(=O)Nc1cccc(-c2nc3ccccc3[nH]2)c1
  -17	-0.6	-0.8%	9	0.0	-10
- O=C(Nc1ccc(OC(F)(F)F)cc1)C1CCCCN1S(=O)(=O)c1ccccc1 (stereo unspecified)
  16	-3.7	?	55	2.3	3
- Clc1ccc2c(c1)C(N1CCNCC1)=Nc1ccccc1O2
  0	-4.1	0.2%&-1.4%	-11	0.5	5
- Cc1cccc(-n2c(N)cc(=O)[nH]c2=S)c1C
  0	-2.5	0.6%	-10	-0.9	0
- COc1cc(OC)cc(C(=O)Nc2ccc(C(=O)c3ccncc3)cc2)c1
  -11	0.0	1.4%	28	2.3	-6
- Cc1cccc(C(=O)Oc2ccccc2/C=N/NC(=O)c2ccc(NC(=O)C(C)(C)C)cc2)c1
  -10	1.2	1.0%	6	1.2	2
- CCn1nnnc1SCC(=O)N1CCN(Cc2ccc3c(c2)OCCO3)CC1
  22	-3.5	0.2%	-11	0.1	2
- CCOC(=O)C1CCCNC1=O (stereo unspecified)
  14	-2.3	0.1%	4	0.6	5
- COc1ccccc1OCc1nc(C#N)c(NCCCn2ccnc2)o1
  -1	-2.6	0.3%	-13	-0.5	-4
- O=C(NCC1CC1)c1ccc2c(c1)S(=O)(=O)c1cc(Cl)ccc1C2=O
  -12	7.5	-2.2%	1	-0.7	-9
- CCC(C)NC(=O)CCSc1nc(-c2ccc(OC)cc2)cc(C(F)(F)F)n1 (stereo unspecified)
  /	/	25%	22	5.5	/
- Cc1ccc(N2C(N)=C(C#N)C(c3cc(CN4CCOCC4)cs3)C3=C2CC(C)(C)CC3=O)cc1 (stereo unspecified)
  25	-2.5	2.4%	-8	-0.4	-15
- C/C(=N\NC(=O)c1cccc2ccccc12)c1ccccn1
  -91*	-9.3	3.3%	17	0.6	-92*
- CCc1cc(OCCCCNCc2ccccc2)ccc1Cl
  24	-7.6	-1.5%	16	0.0	7
- Cc1ccc(C(=O)NCC(=O)OCC(=O)c2ccc(Br)s2)cc1
  9	-6.3	0.5%	-17	-1.1	5
- COc1cc(CN2CCc3nc(N4CCN(c5ncccn5)CC4)ncc3C2)cc(OC)c1OC
  /	/	0.6%	8	-0.3	/
- O=C(CN1C(=O)NC2(CCCCCC2)C1=O)NC1CCCCCCC1
  -6	-3.6	1.6%	1	0.3	/
- C[C@H](CO)NC(=O)c1nc[nH]c1C(=O)N[C@@H](C)c1ccccc1
  0	-2.2	-1.7%	-2	-0.5	-2
- Clc1ccccc1-c1ccc2nccn2c1
  0	-5.4	-0.8%	/	-0.8	-8
- Cc1nn(C)c2c1c(C(F)(F)F)cc(=O)n2CC(=O)Nc1ccc(F)cc1F
  /	/	0.7%	34	3.6	/
- O=C(NNC1=Nc2ccccc2SC1)c1ccccc1F
  -2	1.0	-0.2%	-7	0.3	-2
- O=C(CCCN1C(=O)c2ccccc2C1=O)NCCC1=CCCCC1
  2	-3.4	1.3%[38.3 µM]	-3	-0.2	2
- Fc1ccc(-n2c(-c3ccc4ccccc4n3)n[nH]c2=S)cc1
  1	6.3	0.2%	-25	1.5	0
- Cc1noc(C)c1CSCC(=O)Nc1nc2ccc(F)cc2s1
  -3	-3.5	1.7%	15	0.4	-22
- N#CC1(NC(=O)CN2C(=O)c3ccccc3C2=O)CCCCC1
  2	-4.9	0.3%	-14	-0.5	10
- COc1ccc(NC(=O)COc2ccc(S(=O)(=O)N3CCOCC3)cc2C)cc1OC
  2	-2.2	0.2%	-6	0.7	3
- CCOc1ccccc1CNC(=O)C1CCN(c2nn3cc(-c4ccc(F)cc4)nc3s2)CC1
  /	/	-1.0%	12	1.3	/
- COc1cccc(OCc2cc(C(=O)NCCc3cccc(C)n3)no2)c1
  18	-3.7	0.6%	14	1.1	1
- Cc1ccc(CNC(=O)c2c(O)nc3c(C)cccn3c2=O)cc1
  /	/	-0.5%	-8	-0.9	/
- COc1ccc(NC(=O)c2ccco2)cc1NC(=O)c1cc(Br)ccc1Cl
  /	/	8.3%	-11	3.3	/
- Cc1ccc(NC(=O)Cn2cc(C=O)c3ccccc32)cc1
  3	6.0	8.8%	0	0.3	1
- COc1cccc2c1C(=O)c1ccc3ccccc3c1C2=O
  -8	3.3	7.4%	6	0.3	5
- CCc1nn(CC(=O)N2CCC(C)CC2)c(=O)c2cccn12
  6	5.0	-0.2%	16	-0.1	/
- CN(Cc1ccccc1)S(=O)(=O)c1ccc(NC(=O)C2CCCO2)cc1 (stereo unspecified)
  -1	0.3	?	21	0.4	9
- COc1cc(OC)c2ccc(=O)oc2c1C(CC(=O)N1CCCC(C)C1)c1ccc2c(c1)OCO2 (stereo unspecified)
  -12	-3.2	0.2%	-12	2.7	0
- C=CCn1c(-c2ccccc2)ccc(C#N)c1=O
  36	-1.5	-0.3%	3	0.2	39
- O=C(Nc1ccc(Cl)cc1F)c1cc(S(=O)(=O)NC2CCCCCC2)ccc1F
  /	/	0.5%	-7	3.4	/
- CCNC(=O)COc1ccc(F)cc1C(=O)c1cnn(-c2ccccc2)c1
  16	0.9	-1.0%	-15	-0.9	0
- CCOC(=O)c1c(C)oc2nc(C)nc(Nc3ccc(C)c(Cl)c3)c12
  /	/	1.7%	-19	0.6	/
- O=C(NCc1ccccc1)NCc1cccs1
  8	-1.4	-0.6%	16	0.0	5
- O=C(/C=C/c1ccc(S(=O)(=O)NCc2ccco2)cc1)NCc1cccc(Cl)c1
  -6	3.1	1.4%	14	2.2	-5
- c1ccc(OCCOc2cccc3cccnc23)cc1
  4	0.3	4.0%	11	2.0	-2
- O=C(COc1ccc(Cl)cc1)Nc1ccccc1Cl
  12	1.3	0.0%	13	0.2	5
- Cc1cc(OCCCSc2nc(-c3ccc(C(C)(C)C)cc3)nc3cc(=O)[nH]n23)ccc1Cl
  /	/	5.2%	10	0.1	/
- Cn1cc(C(=O)N2CCc3ccccc3C2)c(=O)c2cc(S(=O)(=O)N3CCOCC3)ccc21
  4	0.0	4.1%	13	0.1	19
- COc1ccc2c(c1C)CCC(C)(C#N)C2=O (stereo unspecified)
  7	5.4	2.4%	-24	78*	1
- O=C(O)c1ccc(NC2=C/C(=N/S(=O)(=O)c3ccccc3)c3ccccc3C2=O)cc1
  ?	3.2	-2.0%	1	0.6	?

An excerpt from above in order of length of the SMILES, low to high:
The line under a structure holds: Six1-Eya2 inh	D2 ag	PINK1 expr mod	TRPML1 blocker	TRPML1 ag	CtBP-E1A blk
- O=C(COc1ccc(Cl)cc1)Nc1ccccc1Cl
  12	1.3	0.0%	13	0.2	5
- Cc1ccc(CNC(=O)c2c(O)nc3c(C)cccn3c2=O)cc1
  /	/	-0.5%	-8	-0.9	/
- CCOC(=O)c1c(C)oc2nc(C)nc(Nc3ccc(C)c(Cl)c3)c12
  /	/	1.7%	-19	0.6	/

Additional entries follow.
The line under a structure holds: Six1-Eya2 inh	D2 ag	PINK1 expr mod	TRPML1 blocker	TRPML1 ag	CtBP-E1A blk
- CCOc1ccc(N2CC(C(=O)NCCc3ccccc3)CC2=O)cc1 (stereo unspecified)
  9	-0.4	-1.2%	24	0.0	-6
- CC(=O)Nc1cccc(NC(=O)CSc2nnc(Cc3cccn3C)n2CCc2ccccc2)c1
  -3	-1.6	0.1%[38.3 µM]	17	-0.4	-10
- COc1ccc(C(=O)NCC(=O)N/N=C/c2cn[nH]c2-c2ccccc2)cc1
  -4	10	0.6%	-8	-0.7	-10
- Cc1cc2cc(CNS(=O)(=O)c3ccccc3)ccc2n1C
  -28	1.3	0.6%	9	1.6	-7
- CC(C)CCOCC(=O)Nc1cccc(C(=O)O)c1
  5	-1.0	8.3%[38.3 µM]	14	-0.8	4
- Cc1nc(NC(=O)/C=C/c2ccccc2)n[nH]1
  5	0.3	7.1%	-15	3.1	-14
- CCOC(=O)c1cc(S(=O)(=O)N2CCCC2)cn1C
  6	0.4	1.7%	-9	0.1	/
- Cc1ccc(C)c(NC(=O)C2CCCN(S(=O)(=O)c3c(C)nn(C)c3C)C2)c1 (stereo unspecified)
  0	0.0	15%	6	-0.2	1
- CCOc1cc2[nH]c(=S)n(Cc3ccc(C(=O)NCCCOC)cc3)c(=O)c2cc1OCC
  3	-8.4	-1.5%	?	2.5	2
- COc1cccc2c1C(CCCC(=O)O)CCC2 (stereo unspecified)
  7	-2.1	-1.2%	10	0.8	0
- COc1ccc(-c2noc(N3CCCC(C(=O)Nc4ccc(C(C)=O)cc4)C3)n2)cc1 (stereo unspecified)
  0	-1.9	-0.8%	17	-1.1	2
- O=C(Nc1ccccc1C(F)(F)F)C1CCN(C(=O)c2cccs2)CC1
  7	3.7	0.9%	-1	0.8	4
- CCOC(=O)c1cc(C(O)(C(F)(F)F)C(F)(F)F)c(/N=C/N(C)C)o1
  6	1.5	/	11	1.3	12
- CC(=N\NC(=O)c1cc(Br)ccc1O)/C(=N/O)C(=O)Nc1ccccc1
  -19	5.3	?	-6	-0.1	-21
- CCC(C(=O)NC1CCCCC1)n1c(SCc2cccc(F)c2)nc2ccncc21 (stereo unspecified)
  1	2.9	1.1%&1.0%	7&7	3.3&0.1	6
- S=C(NCCCN1CCOCC1)Nc1ccc(Nc2ccccc2)cc1
  -3	-1.2	-1.0%	-1	-0.2	-6
- CC(=O)c1ccc(NC(=O)NCc2ccc(F)cc2)cc1
  0	1.5	0.0%	12	1.0	1
